Measles inh: inhibitors of measles virus growth in infected cells; z-score (test concentration not listed); actives 0.1% (n = 33,000); AID 745; infected Vero cells, GFP fluorescence, 64 h; active compounds read low;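 active = z-score under -3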;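 note: score is relative to mean and SD of the compound wells of a plate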
An asterisk follows results filed as active.

SMILES | Measles inh
CCn1c(=N)n(CC(O)COc2ccc(OC)cc2)c2ccccc21 (configuration not stated) | 0.56
CCC1(C)OC(=O)N(CCO)C1(C)O (configuration not stated) | -0.47
COc1cccc(OC)c1C(=O)N1CCN(C2CCCC(C)C2)CC1 (configuration not stated) | -0.28
CS(=O)(=O)N(Cc1ccccc1Cl)c1ccc(C(=O)Nc2ccc3c(c2)OCO3)cc1 | -0.43
CC(=O)Nc1ccc(Oc2cc(NC(=O)c3cc(-c4ccc(Cl)cc4)nc4ccccc34)cc([N+](=O)[O-])c2)cc1 | -1.3
Cn1cc(CC(=O)NCCCN2CCCCCC2)c2ccccc21 | -1.6
CC1CCN(Cc2c(O)ccc3cc(-c4nc5ccccc5n4C)c(=O)oc23)CC1 | -0.08
C#CCN1C(=O)C(O)(CC(=O)c2ccc(F)cc2)c2cc(Br)ccc21 (configuration not stated) | -0.07
O=C(CCn1c(=S)oc2ccccc21)Nc1ccc(F)cc1 | -0.39
COC(=O)COc1cc2oc(=O)cc(C)c2cc1Cl | 0.66
Cc1cccc(-n2ncc3c(Nc4ccc(Br)cc4)ncnc32)c1 | 0.1
CCOc1cc(C2NC(=O)NC(C)=C2C(=O)OCc2ccccc2)ccc1O (configuration not stated) | 0.41
CC1(C)Cc2c(sc3nc[nH]c(=O)c23)CO1 | -0.48
CCCC(=O)NCCCc1nc2ccccc2[nH]1 | -0.84
Cc1cc(C)cc(-n2ccnc2SCC(=O)Nc2ccc(Cl)cc2)c1 | 1.1
COC(=O)C1=C(N)OC2=C(C(=O)CCC2)C1c1cccc(F)c1 (configuration not stated) | 0.06
C=CCC1(C#N)C(=S)NC(c2ccccc2)=C(C(=O)OCC)C1c1cccnc1 (configuration not stated) | 1.4
COc1ccc(C(=O)Nc2ccc3c(c2)OCCO3)cc1 | 0.1
CC(C)=C1C2CCC1C1C(=O)N(c3nc(-c4ccc(Cl)cc4)c(C)s3)C(=O)C21 (configuration not stated) | -0.54
Cc1ccc(-c2nc(-c3ccncc3)no2)cc1C | -0.56
O=C(O)c1ccc([N+](=O)[O-])c2c1NC(C(=O)O)C1CC=CC21 (configuration not stated) | 0.03
CNS(=O)(=O)c1cc(OC)ccc1OC | 0.14
CCOc1ccc(S(=O)(=O)Nc2cc([N+](=O)[O-])ccc2OC)c2cccnc12 | -0.02
CC(O)Cn1c(=N)n(C)c2ccccc21 (configuration not stated) | 1.8
CC12CC(NC(=O)N1c1cccc(C(=O)N3CCN(Cc4ccc5c(c4)OCO5)CC3)c1)c1ccccc1O2 (configuration not stated) | 0.64
COc1ccc([N+](=O)[O-])cc1NC(=O)c1ccc(S(=O)(=O)N(C)c2ccccc2)cc1 | -0.42
COc1ccc2c(c1)CN(c1ccc(Br)cc1)CO2 | 0.02
Cc1ccc(C)c(Cn2c(=O)n(CCC(=O)N3CCc4ccccc4C3)c(=O)c3ccccc32)c1 | 0.12
Cc1ccc(S(=O)(=O)n2nc(C)c(Sc3ccccc3)c2C)cc1 | -0.1
CC(C)(C)NC(=O)CN1C(=O)CSc2ccc(S(=O)(=O)N3CCCCC3)cc21 | 0.35
O=C(CCS(=O)(=O)c1cccc2nonc12)NC1CCCC1 | 0.69
CCOc1ccc(NC(=O)C2c3ccccc3Oc3ccccc32)c([N+](=O)[O-])c1 | -0.67
CCOc1cc(C2C=C(c3ccc(C)cc3)Nc3ncnn32)ccc1OC(F)F (configuration not stated) | -0.36
CCCCOc1ccc(C(=O)N2N=C(C)CC2(O)C(F)F)cc1 (configuration not stated) | 0.04
NC(=O)c1cc2c(ccc3ccccc32)oc1=Nc1ccc(Br)cc1 | 0.83
COc1ccc(Oc2c(C(F)(F)F)oc3cc(OCc4ccccc4)ccc3c2=O)cc1 | -0.15
Cc1cccc(N(CC(=O)Nc2c(C)cccc2C)S(=O)(=O)c2ccccc2)c1C | -0.81
O=C(Nc1nc(-c2ccc(F)cc2)cs1)c1ccc(Oc2ccccc2)cc1 | 0.01
COc1ccc(CNC(=O)CN(c2cccc([N+](=O)[O-])c2)S(=O)(=O)c2ccccc2)cc1 | -0.78
CCOc1ccc(-c2c[n+]3c(n2Cc2ccccc2)SCCC3)cc1 | -0.27
CCCCC1(C)NC(=S)N(C)N1 (configuration not stated) | -0.2
O=C(Cn1c(=O)[nH]c2ccsc2c1=O)NCCc1ccccc1 | 0.09
CCOC(=O)c1c(NC(=O)c2cc(Cl)ccc2[N+](=O)[O-])sc2c1CCCCC2 | -0.66
Cc1nc(NCc2ccccc2)c2sc3nc4c(cc3c2n1)COC(C)(C)C4 | 0.39
COc1ccc(NC(=O)c2cc(-c3ccc4c(c3)OCO4)on2)c(OC)c1 | 0.64
CCN(CC)C(C(=O)NC1CCCCC1)c1ccccc1 (configuration not stated) | -1.1
CCOC(=O)c1sc(NC(=O)c2ccc(C)c([N+](=O)[O-])c2)c(C(=O)OCC)c1C | -0.96
Cc1ccccc1C(=O)N1CCC(C(=O)Nc2ccc(Oc3ccccc3)cc2)CC1 | 0.75
O=C(c1cccc2ccccc12)N1CCN(Cc2c[nH]c3ccccc23)CC1 | -0.1
O=[N+]([O-])c1ccc(C(O)Cn2c(-c3ccccc3)csc2=Nc2ccccc2)cc1 (configuration not stated) | -0.7
More results follow.
SMILES | Measles inh
CCCN1CCN(c2cc(Nc3ccc(OC)cc3)c3c4c(onc24)-c2ccccc2C3=O)CC1 | 0.45
O=C(Nc1ccccc1C(F)(F)F)c1ccc(F)c(S(=O)(=O)NCCc2ccccc2)c1 | -1.5
COc1ccccc1C(=O)Nc1cc(-c2nc3ncccc3o2)ccc1C | -0.25
O=C(Oc1ccc(N(C(=O)c2ccncc2)S(=O)(=O)c2cccc([N+](=O)[O-])c2)c2ccccc12)c1ccncc1 | -1
CCN(CC)S(=O)(=O)c1ccc2c(c1)CCN2C(=O)C1CCC1 | 1.2
CCC1CCCCN1C(=O)Cn1cnc2ccc(S(=O)(=O)N3CCC(C)CC3)cc2c1=O (configuration not stated) | -0.45
Cc1sc2[nH]c(=O)n(-c3cccc(Cl)c3)c(=O)c2c1C | 0.3
CCc1nnc(N2C(=O)c3ccc(C(=O)O)cc3C2=O)s1 | -1.6
Cc1cccc(NC(=O)c2ccc(NC(=O)CCS(=O)(=O)c3cccs3)cc2)n1 | 0.85
CCOC(=O)c1cc2c(=O)n3ccccc3nc2n(Cc2ccco2)c1=NC(=O)c1cccc([N+](=O)[O-])c1C | 0.11
CCCc1cc(=O)oc2cc(C)c3c(-c4ccc(Cl)cc4)coc3c12 | -0.54
Cc1ccc(S(=O)(=O)c2c(C)nn(-c3ccccc3)c2OC(=O)c2cccc([N+](=O)[O-])c2C)cc1 | 2.9
O=C(Nc1c2c(nn1-c1ccc([N+](=O)[O-])cc1)CSC2)c1cccc([N+](=O)[O-])c1 | -1.5
CN(CCC#N)S(=O)(=O)c1ccc2[nH]cc(C(=O)NC3CCCCCC3)c(=O)c2c1 | 1
CCOC(=O)c1cnc2ccccc2c1Nc1cc(C)ccc1OC | -0.51
CCOc1ccccc1NC(=O)CC1Sc2ccccc2NC1=O (configuration not stated) | -0.73
CC(C)N(C)CCOC(=O)c1cccs1 | -1
O=[N+]([O-])c1ccc(N2CCNCC2)cc1NCCOc1ccc(Cl)cc1 | 1.8
COc1cccc(-c2nc3sc4c(c3c(=O)n2Cc2ccncc2)CCCC4)c1 | -0.72
O=C1CSC(c2cn(-c3ccccc3)nc2-c2cc3ccccc3oc2=O)N1CC1CCCO1 (configuration not stated) | -1
CCCCCS(CC1CC1(Cl)Cl)=NS(=O)(=O)c1ccc(C)cc1 (configuration not stated) | -0.57
COCCNS(=O)(=O)c1ccc2c(c1)CCN2C(C)=O | -1.6
O=C(CSc1nc2c([nH]c3ccccc32)c(=O)n1-c1cccc(Cl)c1)Nc1ccc(F)cc1 | -1.1
COc1ccc(OC)c(C2C(C(=O)Nc3cc(C)ccn3)=C(C)NC3=C2C(=O)CCC3)c1 (configuration not stated) | 1.1
CCC(=O)N1CCc2cc(Br)cc(S(=O)(=O)N3CCC(C(=O)Nc4ccc(Br)cc4)CC3)c21 | -0.11
COCCN1C(=O)c2ccccc2C(C(=O)N2CCN(C(=O)c3ccco3)CC2)C1c1cn(C)c2ccccc12 (configuration not stated) | 1
C=CCOc1ccc(NC(=O)C(=O)NC(C)c2ccccc2)cc1 (configuration not stated) | 0.77
COC(=O)c1c(C)oc2ccc(N(C(=O)c3ccc(C)cc3)S(=O)(=O)c3cc(C)ccc3C)cc12 | -0.33
COc1cc2c(C(=O)Nc3ccc(C(C)C)cc3)cn(C)c(=O)c2cc1OC | -1.2
COc1ccc2c(c1)N(C)C(=Cc1cccc[n+]1C)S2 | -0.2

Three of the entries above in order of the Measles inh value, largest number first:
SMILES | Measles inh
COC(=O)COc1cc2oc(=O)cc(C)c2cc1Cl | 0.66
CC(C)=C1C2CCC1C1C(=O)N(c3nc(-c4ccc(Cl)cc4)c(C)s3)C(=O)C21 (configuration not stated) | -0.54
Cc1cccc(N(CC(=O)Nc2c(C)cccc2C)S(=O)(=O)c2ccccc2)c1C | -0.81

More records.
SMILES | Measles inh
COCC(=O)NCCSc1c(-c2ccc(Cl)cc2)[nH]c2ccccc12 | 0.22
Cc1ccc(-c2csc(N3N=C(c4ccc([N+](=O)[O-])cc4)CC3=O)n2)cc1 | -0.04
Cc1ccc(-c2nc(-c3ccc(Br)cc3)no2)cc1 | 0.14
CC(C)OC(=O)C(C(=O)C(F)(F)F)c1cc(NS(=O)(=O)c2ccc(Br)cc2)c2ccccc2c1O (configuration not stated) | 2.7
Cc1cc([N+](=O)[O-])ccc1NC(=O)c1ccc([N+](=O)[O-])cc1 | -0.39
O=C(c1cn(CCOc2ccc(Cl)cc2)c2ccccc12)C(F)(F)F | -0.53
CC(=O)N1CCc2cc(Br)cc(S(=O)(=O)N3c4ccccc4CC3C)c21 (configuration not stated) | -0.3
COc1ccccc1Oc1ncnc(N)c1[N+](=O)[O-] | -0.92
Cc1nnc(SCCN2C(=O)c3ccccc3C2=O)[nH]c1=O | -0.25
CCNC(=O)c1cc(Cl)nc(Cl)c1 | -0.68
CCC(C)NC(=O)c1ccc2c(=O)n(CCOC)c(=O)[nH]c2c1 (configuration not stated) | 1.4
COc1ccc(CN2CC(C(=O)NCc3ccccc3Cl)CC2=O)cc1 (configuration not stated) | 0
CCC1CCC(C(=O)NC(C(=O)Nc2cccc(OC)c2)C(C)C)CC1 (configuration not stated) | -0.72
CC1(C)Nc2ccccc2C(=O)N1c1cccc(C(F)(F)F)c1 | -0.55
O=C(Cc1ccccc1)Oc1ccc2oc(=O)sc2c1 | -0.37
Cc1cc(N2CCC(C)CC2)nc2ccc(NC(=O)CCC(=O)NCC3COc4ccccc4O3)cc12 (configuration not stated) | -1.1
Cc1nn(C)c(C(=O)N2Cc3ccccc3C(=O)N2)c1[N+](=O)[O-] | -0.66
CCOc1ccccc1N(C)C(=O)c1cc(S(=O)(=O)NCc2ccc(C)cc2)ccc1F | -1.9
CC(=O)N1c2c(cc(Br)cc2S(=O)(=O)N(C)c2ccc(Br)cc2)CC1C (configuration not stated) | 0.41
CCC(C)NC(=O)c1ccc(CNC(=O)c2ccc(Br)cc2)cc1 (configuration not stated) | -0.23

Reprinted at random: 4 compounds from above, in no set order.
SMILES | Measles inh
CCC1CCC(C(=O)NC(C(=O)Nc2cccc(OC)c2)C(C)C)CC1 (configuration not stated) | -0.72
O=C(Cc1ccccc1)Oc1ccc2oc(=O)sc2c1 | -0.37
CCOc1ccccc1N(C)C(=O)c1cc(S(=O)(=O)NCc2ccc(C)cc2)ccc1F | -1.9
Cc1cc(N2CCC(C)CC2)nc2ccc(NC(=O)CCC(=O)NCC3COc4ccccc4O3)cc12 (configuration not stated) | -1.1

Remaining list, next part.
SMILES | Measles inh
CCCCN(C)C(=O)c1ccc(CNS(=O)(=O)c2ccc(Cl)cc2)cc1 | 0.05
COc1cc(C(=O)NCCn2c(C)cc3ccccc32)cc(OC)c1OC | -2
CC1=C(C(=O)OCCc2ccccc2)C(c2ccc(F)cc2)C2=C(CC(C)(C)CC2=O)N1 (configuration not stated) | -1.1
Cn1c(=O)c2c(nc(NCc3ccco3)n2Cc2ccccc2Cl)n(C)c1=O | 2.5
CC1=C(C(=O)OC2CCCC2)C(c2ccc3c(c2)OCO3)NC(=O)N1 (configuration not stated) | 0.1
COc1ccc(CC(=O)Nc2c3c(nn2C(C)(C)C)CS(=O)C3)cc1OC (configuration not stated) | 0.86
Cc1nn(-c2ccccc2Cl)c2c1C(=O)CC(C)(C)C2 | -0.59
O=C1CSC(c2ccccc2)N1CC12CC3CC(CC(O)(C3)C1)C2 (configuration not stated) | 0.16
O=C(CN1C(=O)c2ccccc2S1(=O)=O)NCC1CCCO1 (configuration not stated) | -0.1
CCC(C)N1C(=O)CCC1C(=O)N1CCN(c2ccc(F)cc2)CC1 (configuration not stated) | -2.7
O=C1C2CC=CCC2C(=O)N1c1ccc(N2CCN(Cc3ccccc3)CC2)c([N+](=O)[O-])c1 (configuration not stated) | -0.28
C[n+]1ccc(C=Cc2c[nH]c3ccccc23)cc1 | 0.51
CC(=O)C1=C(C)Nc2ncnn2C1c1ccncc1 (configuration not stated) | -0.25
C=CCSc1nnc2c(n1)OC(c1ccc(OCC)c(C)c1)N(C(C)=O)c1ccccc1-2 (configuration not stated) | -0.57
CN(Cc1ccco1)S(=O)(=O)c1ccc2[nH]cc(C(=O)O)c(=O)c2c1 | -0.68

Some of the entries so far, in CSV form:
mol,Measles inh
O=C1C2CC=CCC2C(=O)N1c1ccc(N2CCN(Cc3ccccc3)CC2)c([N+](=O)[O-])c1 (configuration not stated),-0.28
C[n+]1ccc(C=Cc2c[nH]c3ccccc23)cc1,0.51
CC(=O)C1=C(C)Nc2ncnn2C1c1ccncc1 (configuration not stated),-0.25
C=CCSc1nnc2c(n1)OC(c1ccc(OCC)c(C)c1)N(C(C)=O)c1ccccc1-2 (configuration not stated),-0.57

Some of the compounds tested, so the mix of outcomes need not match the whole.
